# Screening results as filed in PubChem BioAssay.
# FGF22 binding: shifts melting point of recombinant human FGF22; Q9HCT0; recombinant FGF22 thermal shift, SYPRO orange fluorescence; percent of sucrose octasulfate shift, DMSO zero; calls only at 9.99 µM; 340,000 compounds, 1.5% hits; AID 651658;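 active = melting point raised past a set limit in the mean and every replicate; inconclusive = no clear call; three in four hits are not shown here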
# Target sequence (Q9HCT0 whole entry, looked up): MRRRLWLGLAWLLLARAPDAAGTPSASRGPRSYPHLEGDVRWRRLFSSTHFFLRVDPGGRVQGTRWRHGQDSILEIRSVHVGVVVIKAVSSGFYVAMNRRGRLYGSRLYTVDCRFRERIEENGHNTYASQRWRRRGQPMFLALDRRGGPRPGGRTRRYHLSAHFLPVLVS
# Beta2AR agonist: agonists of human beta-2 adrenergic receptor inducing internalization. Am2.2-beta2AR cells, FAP receptor internalization, flow cytometry; reference of the scale not given here. 340,000 compounds, 0.43% hits. response, % (test concentration not listed). AID 504454. P07550;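 active = response above a set limit, near 3 SD of response in nonfluorescent compounds, cut at about 42% in these data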;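 note: stock transfer was 100 nL into about 11 µL; a reference agonist was the positive control; negative values mostly stem from fluorescent compounds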
# Target sequence (P07550 whole entry, looked up): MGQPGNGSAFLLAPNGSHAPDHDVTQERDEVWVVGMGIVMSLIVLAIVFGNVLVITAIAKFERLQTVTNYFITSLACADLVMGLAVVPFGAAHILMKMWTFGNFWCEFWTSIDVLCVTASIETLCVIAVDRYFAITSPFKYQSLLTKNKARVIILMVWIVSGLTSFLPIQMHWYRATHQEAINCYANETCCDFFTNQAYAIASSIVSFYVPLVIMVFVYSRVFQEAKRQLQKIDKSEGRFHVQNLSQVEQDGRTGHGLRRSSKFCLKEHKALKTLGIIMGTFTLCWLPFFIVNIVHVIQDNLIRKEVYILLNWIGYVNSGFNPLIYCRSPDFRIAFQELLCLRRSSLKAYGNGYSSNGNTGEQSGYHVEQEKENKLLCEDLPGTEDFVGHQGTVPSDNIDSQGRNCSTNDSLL
# ALR inh: human ALR oxidase inhibition via reduced H2O2; purified ALR, DTT oxidation, H2O2 HRP-luminol luminescence; inhibition, % (concentration not given with the values); 290,000 compounds, 3.8% hits; P55789; AID 485317;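 active = mean and each replicate at 75% or more; inconclusive = only one of the two met; inactive = neither met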;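 note: stock transfer was 7.5 nL into about 7.5 µL; 0% = neutral wells and 100% = wells with inactivated enzyme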
# LANA-H2B inh: blocks KSHV LANA binding to histone H2A/H2B. inhibition, % (test concentration not listed). 320,000 compounds, 0.6% hits. Q9QR71. cell-free LANA-H2A/H2B peptide, fluorescence polarization; in the data active = inhibition mostly above about 10%, no sharp cut-off; inactive = mostly below about 6.7%;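 note: stock transfer was 7.5 nL into about 10 µL; 0% = median of vehicle wells and 100% = median of positive control wells; one replicate is shown; the record names a cut of 25% in any replicate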
# HNF4A DNA FP: change in binding of human HNF4 alpha to DNA; AID 1224865; HNF4a-FITC DNA binding, fluorescence polarization, 1 h; activity change, % at 10 µM; 360,000 compounds, 0.3% hits; in the data active = activity change above about 30%, passing the limit was not always enough;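 note: controls were the assay level and a saturating level of protein; the project sought stronger binding though the title names inhibitors; some compounds called inactive have numbers as strong as hits; positive values seem to mean higher polarization but the record does not say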
# Ecoli growth: inhibitors of Escherichia coli growth | OD600 absorbance (no concentration beside the values) | AID 1053175 | 330,000 compounds, 0.21% hits | OD600, 23 h; active compounds read low;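 active = OD600 absorbance below the run mean of sample wells minus 3.6 SD, in any replicate, cut at about 0.56 in these data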;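 note: stock transfer was 300 nL into about 60 µL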
# UCH37 DUB inh: inhibitors of human deubiquitinating enzyme UCH37. inhibition, % (concentration not given with the values). purified proteasome/UCH37, Ub-AMC cleavage fluorescence. Q9Y5K5. AID 588478. 330,000 compounds, 0.33% hits;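 active = mean of two replicates above 20%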;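 note: 0% = compound-free wells with enzyme and 100% = wells lacking proteasome; stock transfer was 100 nL into about 20 µL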
# Target sequence (Q9Y5K5 whole entry, looked up): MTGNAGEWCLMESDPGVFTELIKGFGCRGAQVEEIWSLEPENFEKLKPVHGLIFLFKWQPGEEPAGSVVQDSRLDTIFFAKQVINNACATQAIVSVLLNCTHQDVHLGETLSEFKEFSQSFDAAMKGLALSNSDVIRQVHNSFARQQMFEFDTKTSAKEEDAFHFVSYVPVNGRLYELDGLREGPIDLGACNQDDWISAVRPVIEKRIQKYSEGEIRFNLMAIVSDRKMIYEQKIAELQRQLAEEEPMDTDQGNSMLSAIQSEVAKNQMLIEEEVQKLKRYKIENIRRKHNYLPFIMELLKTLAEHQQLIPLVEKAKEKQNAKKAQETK
#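 Signal – fluorescence, ex 355 nm, em 460 nm · System – Proteasome-bound UCH37 · Input – 0.15 nM proteasome as dispensed · Timing – 30 min preincubation with enzyme, 25 min cleavage at room temperature · Read-out basis – percent inhibition of cleavage signal versus uninhibited and no-proteasome wells · Medium – Tris-HCl pH 7.4 with ATP-MgCl2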
# The depositor's hits bear a star; i = inactive; u = inconclusive; x = no result given. A portion of the library; the hit share may differ from the screen's.
FGF22 binding	Beta2AR agonist	ALR inh	molecule	LANA-H2B inh	HNF4A DNA FP	Ecoli growth	UCH37 DUB inh
i	4	8	COc1ccc(C(=O)N2CCN(c3cccc(Cl)c3)CC2)cc1	-3.1	1.1	0.63	0.6
i	5	3	C/C(=N\NC(=O)CC#N)c1cc2ccc(O)cc2oc1=O	4.7	2.7	x	x
i	-2	1	Cc1ccc(S(=O)(=O)Nc2ccccc2C(=O)NCc2cccnc2)cc1	-5.7	0.3	0.65	-22
i	-9	2	O=C(C[n+]1ccc(/C=N/O)cc1)N(Cc1ccccc1)Cc1ccccc1	2.1	2.3	x	x
x	4	-5	Cc1ccc(SCc2nc3ccccc3n2CC(=O)Nc2ccccc2)cc1	3.2	-7.1	0.68	2.9
x	-5	1	CCCCOCCCNC(=O)N[C@@H](CC(C)C)C(=O)O	-2.8	-0.7	0.67	1.1
i	-1	5	CCOc1ccccc1N1CCN(C(=O)c2cn(CC3CCCCC3)nn2)CC1	-3.7	2.4	0.69	-1.8
i	8	98*	Cc1ccc2occ(/C=N/NC(=O)c3ccc(O)cc3)c(=O)c2c1	1.4	2.5	x	x

# Sorted by value in Beta2AR agonist (descending): some entries from above
Compound,FGF22 binding,Beta2AR agonist,ALR inh,LANA-H2B inh,HNF4A DNA FP,Ecoli growth,UCH37 DUB inh
Cc1ccc(SCc2nc3ccccc3n2CC(=O)Nc2ccccc2)cc1,x,4,-5,3.2,-7.1,0.68,2.9
CCOc1ccccc1N1CCN(C(=O)c2cn(CC3CCCCC3)nn2)CC1,i,-1,5,-3.7,2.4,0.69,-1.8
Cc1ccc(S(=O)(=O)Nc2ccccc2C(=O)NCc2cccnc2)cc1,i,-2,1,-5.7,0.3,0.65,-22

# ALR inh: what is marked active above.
FGF22 binding	Beta2AR agonist	ALR inh	molecule	LANA-H2B inh	HNF4A DNA FP	Ecoli growth	UCH37 DUB inh
i	8	98*	Cc1ccc2occ(/C=N/NC(=O)c3ccc(O)cc3)c(=O)c2c1	1.4	2.5	x	x

# Going on with the list:
FGF22 binding	Beta2AR agonist	ALR inh	molecule	LANA-H2B inh	HNF4A DNA FP	Ecoli growth	UCH37 DUB inh
i	-9	0	Cc1ccc(NC(=O)[C@@H](C)NC(=O)[C@@H]2Cc3ccccc3CN2)cc1	-0.5	4.5	0.67	5.8
i	-3	11	Cn1c(=O)[nH]c(=O)c2c1nc(SCC(=O)Nc1ccccc1)n2Cc1ccccc1	1.1	-0.4	0.68	3.8
i	2	-3	CCOc1ccc(/C=C2/C(=N)N3OC(C)=CC3=NC2=O)cc1OC	7.1	3.1	x	3.4
i	5	-2	COCC(C)NCc1cccc([N+](=O)[O-])c1 (centres undefined)	3.5	2.4	0.66	3.9
i	-4	-5	NC(=O)CSc1nnc2ccc(-c3ccco3)nn12	-1.3	-0.3	x	x
x	-9	x	CNCc1ccccc1Sc1ccc(OC)cc1	x	-3.5	0.66	2.3
i	19	24	CC1CCN(c2nc(Cl)nc(Nc3ccc([N+](=O)[O-])cc3)n2)CC1	-6.9	-0.6	0.71	6.7
i	-7	23	CCOc1ccc(-n2c(SCC(N)=O)nnc2-c2ccco2)cc1	-0.1	3.5	x	x

# One compound at a time (already shown).
# NC(=O)CSc1nnc2ccc(-c3ccco3)nn12 in the list: FGF22 binding = i; Beta2AR agonist = -4; ALR inh = -5; LANA-H2B inh = -1.3; HNF4A DNA FP = -0.3; Ecoli growth = x; UCH37 DUB inh = x
# CCOc1ccc(/C=C2/C(=N)N3OC(C)=CC3=NC2=O)cc1OC in the list: FGF22 binding = i; Beta2AR agonist = 2; ALR inh = -3; LANA-H2B inh = 7.1; HNF4A DNA FP = 3.1; Ecoli growth = x; UCH37 DUB inh = 3.4

# (next part)
FGF22 binding	Beta2AR agonist	ALR inh	molecule	LANA-H2B inh	HNF4A DNA FP	Ecoli growth	UCH37 DUB inh
i	1	x	CC(C)C[C@H]1COCCS(=O)(=O)N1Cc1cccc(C(F)(F)F)c1	-1.2	2.5	x	3.0
i	-5	13	CCCCN1C(=O)N(c2ccccc2Cl)C(C)(O)CC1(C)C (centres undefined)	3.0	-3.3	0.67	2.9
x	1	55	O=c1[nH]ncn2cccc12	-1.0	-2.1	0.76	0.3
i	13	98*	CCc1c(C)nc(N2CCN(c3cccc(OC)c3)CC2)[nH]c1=O	-2.6	1.6	0.69	1.7
i	1	1	CC(=O)NCCn1c(SCC(=O)NCCc2ccc(S(N)(=O)=O)cc2)nc2ccccc2c1=O	2.5	-1.3	0.7	1.0
i	3	0	CCOC(=O)C1CCCN(c2c(NCCN3CCCCC3CC)c(=O)c2=O)C1 (centres undefined)	-3.7	1.5	0.72	4.0
i	10	-2	CCOC(=O)[C@@H]1CCN(Cc2ccccc2)C[C@H]1c1ccccc1	0.3	6.5	0.65	4.6
i	16	99*	CCOC(=O)C(=NC1CCS(=O)(=O)C1)NNc1ccccc1Cl (centres undefined)	0.8	2.2	0.73	5.2
i	4	6	Cc1ccc([C@@H]2CC=C(C(=O)O)[C@H](c3ccc(Cl)cc3)N2S(=O)(=O)c2ccc(C)cc2)cc1	-5.2	0.0	x	2.1
x	-1	-7	CCCN(CCC)S(=O)(=O)c1ccc2c(c1)CCCN2C(C)=O	-0.4	0.7	0.7	0.0
x	10	-8	CCOC(=O)C1CCN(C(=O)c2oc3ccc(S(=O)(=O)N4CCCCCC4)cc3c2C)CC1	-0.3	-0.9	0.71	4.7
i	-12	x	Cc1ccc2oc(C(=O)N(Cc3ccccc3)C3CCS(=O)(=O)C3)c(C)c2c1 (centres undefined)	x	-3.9	0.67	1.6
i	-1	-1	COc1cccc(C(=O)Nc2cc(C(=O)NCCc3ccccc3)ccc2Cl)c1	-7.2	2.0	0.73	0.1
x	6	6	COc1ccc(CC(=O)NNS(=O)(=O)c2ccc3ccccc3c2)cc1OC	0.5	-1.5	0.67	2.3
i	11	0	COc1ccc(C(=O)COC(=O)c2ccccc2C(=O)N(C)c2ccccc2)c(OC)c1	0.3	-3.0	0.62	1.1
i	29	x	C=C(CN(C)C)C(=O)c1ccc(C)cc1C	x	-0.6	x	x
x	-18	3	COc1nccnc1NS(=O)(=O)c1ccc(NC(=S)NC(=O)/C=C/c2ccccc2)cc1	-0.3	1.5	0.66	6.3
i	1	0	COC(=O)C1=C(C)N(Cc2ccccc2)C(=S)N[C@H]1c1ccc(Br)cc1	-5.2	-2.6	x	3.1
i	1	x	CC1(C)C(CC(=O)O)CC1C(=O)O (centres undefined)	x	8.8	0.7	2.9
i	0	x	CCC1(CC)C(C#N)C(=O)NC(=O)C1C#N (centres undefined)	x	5.2	0.7	5.2
i	-1	-8	Cc1ccc(-c2nc(CS(=O)(=O)CC(=O)N3CCOCC3)c(C)o2)cc1	4.3	5.3	0.68	2.9
x	2	-13	CCOCCCNC(=O)C(c1ccccc1)N(Cc1cccs1)C(=O)CNC(C)=O (centres undefined)	0.0	-1.8	0.61	1.4
i	-2	-3	Cc1ccc(Cl)cc1NC(=O)Nc1c(C)n(C)n(-c2ccccc2)c1=O	1.2	-2.3	0.68	3.0
i	-1	-3	COc1ccc(N(C)S(=O)(=O)c2cccc(C(=O)NCc3ccc4c(c3)OCO4)c2)cc1	-0.3	-1.5	0.67	3.1
i	4	-3	COC(=O)C1CCN(C(=O)CN2C(=O)NC3(CCC(C)CC3)C2=O)CC1 (centres undefined)	4.1	3.7	0.68	1.7
i	-1	-2	COC(=O)c1cc(S(=O)(=O)Nc2cc(S(=O)(=O)N(C)C)ccc2C)oc1C	3.2	0.4	0.66	6.8
i	-1	-3	Cc1ccc(NC(=O)CN(C)Cc2ccc(Cl)cc2)cc1	-4.2	1.8	0.59	1.3
i	6	-13	Cc1cccc(OCC(=O)NNC(=O)c2ccc3nc[nH]c3c2)c1	-0.3	-0.6	x	x
x	-6	6	O=C(OCC1OC(n2ccc(=O)[nH]c2=O)C(O)C1OC(=O)c1ccccc1)c1ccccc1 (centres undefined)	6.1	-1.6	0.69	-0.3
x	3	-2	O=C(Cc1ccc(F)cc1)c1ccc(O)cc1O	5.4	-6.3	0.62	0.2
x	4	x	COc1ccc(S(=O)(=O)Nc2cc(C(=O)NC3CCCCCC3)ccc2N2CCOCC2)cc1	0.8	1.6	0.63	2.6
i	-6	53	O=c1oc2ccccc2c(Nc2ccccc2O)c1[N+](=O)[O-]	1.1	4.1	0.68	7.7
i	-3	-7	Cc1c(C(=O)OCC(=O)Nc2cccc(S(N)(=O)=O)c2)oc2c1ccc1ccccc12	5.2	-1.0	0.72	-43
x	-14	-1	O=C1CN(C(=O)c2ccc(Br)o2)C(c2ccc(F)cc2)c2cc(F)ccc2N1 (centres undefined)	4.6	-0.5	0.69	2.2
i	-4	19	Cn1cc([N+](=O)[O-])c(C(=O)NCc2ccco2)n1	-2.7	-1.5	0.71	2.1
i	7	3	O=C(COC(=O)/C=C/c1cccc(Br)c1)NC1CCCCCC1	-4.3	0.1	0.7	0.8
i	6	-5	Cc1ccc(C)c(CN2C(=O)c3ccccc3S(=O)(=O)c3ccc(C(=O)N4CCN(C)CC4)cc32)c1	3.2	-1.2	0.71	-0.1
x	0	-3	CC(C)=CC(=O)Nc1nnc(-c2ccc(F)cc2)s1	3.6	0.2	0.67	1.7
i	6	0	CCOc1ccc2[nH]c(C)c(CN3CCOCC3)c(=O)c2c1	-0.1	3.4	0.7	-39
i	-2	-25	O=C(/C=C/c1ccccc1)NC(=S)Nc1ccc(N2CCOCC2)c(Cl)c1	-1.3	-1.0	0.7	-1.0
i	-6	16	CO/N=C/C=C1/N(C)c2ccccc2C1(C)C	-6.1	3.6	x	x
x	-2	x	COCCn1c(SCC(=O)Nc2ccc(S(N)(=O)=O)cc2)nc2ccccc21	-4.3	-0.9	0.72	2.4
x	-14	u	CC(=O)c1c(N2CCCCC2)nc(=S)n(Cc2ccccc2)c1C	0.1	0.8	0.65	3.6
i	6	-26	N#Cc1ccc(C23CC4(C2)[C@H](CN(CC2CCCCC2)[C@@H]4c2ccccc2)C3c2ccc(Cl)nc2)cc1 (some centres undefined)	-5.9	2.5	x	3.4
x	-21	4	CCOC(=O)C(=CNc1cc(C)nn1-c1ccccc1)C(=O)OCC	2.2	1.1	0.65	-3.9
i	-9	-8	O=S(=O)(NC1CCN(Cc2ccccc2)CC1)c1ccc2ccccc2c1	3.8	-1.1	0.65	-1.4
x	6	-3	Cc1ccc(NC(=O)C2CCCN(S(=O)(=O)c3c(C)noc3C)C2)nc1 (centres undefined)	2.7	0.5	0.71	1.5
i	-1	4	COC(=O)c1sccc1NC(=O)C1CC1	1.5	0.2	0.7	5.8
i	4	0	COc1ccc(NC(=O)CSc2nnc(Cc3ccccc3)c(=O)n2N)c(OC)c1	-7.9	-1.7	0.69	0.2
i	-16	28	N#Cc1cc(-c2ccccc2)[nH]c1-c1nccc2ccccc12	-0.7	1.8	0.69	-55
x	-1	7	O=c1[nH]c2ccc(S(=O)(=O)N3CCCCC3)cc2[nH]c1=O	-0.4	-1.5	0.79	2.1
i	7	51	Cc1[nH]c(C)c(C(=O)/C=C/c2ccc([N+](=O)[O-])cc2)c1C	-0.5	-1.2	0.72	7.2
i	2	-41	Cc1nc2ccccc2c2c1C(=O)N(c1ccc(C(=O)O)cc1)C2=O	-2.7	1.7	0.71	10.0
i	6	99*	O=C(CSc1ccncc1)Nc1ccc(S(=O)(=O)Nc2nccs2)cc1	-2.7	-3.6	0.69	4.7
i	7	-23	CCOc1ccc(NC(=S)N2CCN(S(C)(=O)=O)CC2)cc1	5.5	3.8	0.72	3.9
i	5	3	CC(=O)c1cccc(CN2CCCC(CCC(=O)NCc3ccc(C)o3)C2)c1 (centres undefined)	4.3	5.1	0.67	-0.1
i	-5	16	Cc1ccc(-c2nn(-c3ccccc3)cc2/C=C/C(=O)O)o1	-1.6	-1.9	0.7	-58
x	31	-11	Cn1ccnc1Sc1ccc(/C=N/NC(=O)c2ccccc2O)cc1[N+](=O)[O-]	-2.0	1.9	x	x
x	-15	-3	Fc1ccc(COc2ccc(Br)cc2CNCc2ccncc2)cc1	0.1	-3.1	0.65	2.3
